From PubChem BioAssay
GALR2 agonist = GALR2 receptor agonists, primary screen, cell-based | Galanin receptor type 2 (Homo sapiens), O43603 | GALR2-expressing cells, agonist activation read-out | activation, %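 (tested at 5 µM)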 | 140,000 compounds, 0.48% hits;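 active means above mean plus 3 SD of all compounds, about 5% in these data, not always enough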;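 further: 0% = vehicle buffer wells and 100% = reference agonist at full effect; tested in CHO reporter cells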
Target sequence (O43603 whole entry, looked up): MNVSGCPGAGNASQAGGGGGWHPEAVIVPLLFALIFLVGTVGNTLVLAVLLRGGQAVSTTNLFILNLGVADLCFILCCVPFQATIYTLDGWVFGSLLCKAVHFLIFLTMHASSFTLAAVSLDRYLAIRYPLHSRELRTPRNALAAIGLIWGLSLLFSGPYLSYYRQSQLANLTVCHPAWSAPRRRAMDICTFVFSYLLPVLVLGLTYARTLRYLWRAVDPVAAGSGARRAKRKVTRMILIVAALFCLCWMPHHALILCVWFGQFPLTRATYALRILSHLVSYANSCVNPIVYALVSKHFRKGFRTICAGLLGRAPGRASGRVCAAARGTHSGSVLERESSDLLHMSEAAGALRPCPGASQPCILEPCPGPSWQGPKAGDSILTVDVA
Insulin prom inh = inhibitors of insulin promoter-driven GFP, primary screen, imaging, TRM-6 cells (human fetal islet line), eGFP reporter, cell count; inhibition, % at 2 µM; reporter expression induced with tamoxifen; 130,000 compounds, 0.9% hits;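 active means inhibition above the mean plus 3 SD, with well images judged a real hit on visual review, cut at about 60% in these data, passing the limit was not always enough; inconclusive means inhibition over the cutoff but images rejected on review; inactive means inhibition not above the cutoff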
HSV replic up = enhancers of HSV replication in host cells, fold increase, host cell viability; HSV replication augmentation in cells; maximum fold increase; 220,000 compounds, 0.005% hits;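 active means peak rise of 1.5-fold or more in the series; inconclusive means self-fluorescent or not available for retest; tested in PC3 cells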;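 further: first round at 10 µM; read as green reporter fluorescence; hits show the peak of a series up to 25 µM; 1 = signal of infected wells without compound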
PKD1 kinase inh = inhibitors of human PKD1 kinase, biochemical, fluorescence polarization; AID 797, 2007; inhibition, %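 (about 10 µM by stock and volumes)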; 200,000 compounds, 0.056% hits; PKD1 kinase fluorescence polarization assay;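 active means inhibition of 50% or more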;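 further: controls were vehicle for no effect and a reference inhibitor for full effect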
RGS16-Gao HTS = modulators of RGS16 binding to Galphao, primary screen, biochemical, human proteins, multiplexed bead flow cytometry | AID 1441, 2008 | binding response (% of control), % at 10 µM | bead-based flow cytometry RGS16-Galphao binding, fluorescence; actives lie on both sides | 220,000 compounds, 0.38% hits | Regulator of G-protein signaling 16 (Homo sapiens) + Guanine nucleotide-binding protein …;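 active means below 25% or above 175%, edge rows of some plates excepted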;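 further: Galphao activated by GDP with aluminum fluoride before binding; 100% = wells without compound and 0% = beads without RGS; some results beyond the cut were filed as inactive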
Target sequence (O15492 whole entry, looked up): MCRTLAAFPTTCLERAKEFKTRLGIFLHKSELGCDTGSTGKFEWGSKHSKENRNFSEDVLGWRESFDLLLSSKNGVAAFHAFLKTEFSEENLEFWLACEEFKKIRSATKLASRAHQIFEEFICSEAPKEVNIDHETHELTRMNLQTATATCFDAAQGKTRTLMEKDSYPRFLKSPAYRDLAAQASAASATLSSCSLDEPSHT
Target sequence (P09471 whole entry, looked up): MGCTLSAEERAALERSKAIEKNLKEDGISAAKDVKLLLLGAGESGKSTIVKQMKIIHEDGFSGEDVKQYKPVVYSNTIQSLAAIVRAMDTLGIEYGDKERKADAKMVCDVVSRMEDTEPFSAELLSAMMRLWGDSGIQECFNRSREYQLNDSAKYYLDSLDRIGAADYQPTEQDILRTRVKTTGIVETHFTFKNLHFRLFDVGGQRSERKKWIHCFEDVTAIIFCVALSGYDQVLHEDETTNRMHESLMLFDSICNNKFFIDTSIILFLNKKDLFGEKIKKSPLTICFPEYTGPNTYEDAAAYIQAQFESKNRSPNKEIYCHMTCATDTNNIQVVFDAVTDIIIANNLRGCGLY
Insulin prom inh cell count = also measured in Insulin prom inh; calls as there; normalized cell count, %; measured here: cell count, toxicity; reference of the scale not given here;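 cells exposed to compound for 48 h; stained nuclei by imaging scaled within each plate; lower means fewer cells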
HSV replic up primary fold = recorded beside HSV replic up, whose call it bears; fold increase; compound at 10 µM; measured here: primary screen fold increase 10 uM; tested in PC3 cells;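 GFP signal in the first replicate; 1 = infected wells without compound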
* = called active by the depositor; i = inactive; ? = inconclusive; . = not tested or not shown.

SMILES	GALR2 agonist	Insulin prom inh	Insulin prom inh cell count	HSV replic up	HSV replic up primary fold	PKD1 kinase inh	RGS16-Gao HTS
O=C(Cn1nc(-c2ccc(N3CCOCC3)c([N+](=O)[O-])c2)c2ccccc2c1=O)N1CCCCC1	1.2	4	110	i	0.74	-7	102
COc1ccccc1C1C2CCCCC2(O)CCN1CC(=O)Nc1ccccc1 (centres undefined)	-3.3	3	109	i	1	-7	98
CN(c1ccccc1)P(=O)(N(C)c1ccccc1)N(C)c1ccccc1	.	.	.	i	1.1	6	99
Cn1c(=O)[nH]c(=O)c2c1nc(SCCN1CCOCC1)n2Cc1ccccc1	0.3	-6	187	i	1	-3	104
CC1(C)C2CCC1(CS(=O)(=O)N1CCC(C(=O)O)CC1)C(=O)C2 (centres undefined)	.	.	.	i	0.93	.	99
Cn1c(=O)c2c(ncn2CC(=O)Nc2nnc(Cc3ccccc3)s2)n(C)c1=O	-1.9	-42	172	i	0.91	3	103
O=C(Nc1nnc(-c2ccco2)o1)c1cccc(Cl)c1	.	-55	100	i	1	-2	109
COc1ccc(OC)c(CCNC(=O)CS(=O)(=O)Cc2nc(-c3ccccc3C)oc2C)c1	-2.7	-131	54	.	.	-5	104
O=C(CCCOc1ccc(Cl)cc1Cl)Nc1ccccn1	.	.	.	i	0.97	1	111
CC1CCN(C(=S)Nc2cccc(S(=O)(=O)N(C)C)c2)CC1	.	.	.	i	0.94	5	103
COc1ccc(-c2nc(CSCC(=O)NCCC3=CCCCC3)c(C)o2)cc1OC	-0.9	38	99	i	0.92	1	101
CCOC(=O)c1c(-c2ccccc2)nc2cc(C)ccn12	-1.4	-35	59	i	0.75	-8	99
c1ccc(-c2cc(N3CCOCC3)nc3ccccc23)cc1	-2.4	-46	84	i	1	1	91
Cc1ccc(NC(=O)CCC(=O)NNC(=O)COc2ccccc2)c(C)c1	-0.6	-4	72	i	1.1	10	114
COc1ccc([N+](=O)[O-])cc1COc1cc(C)cc2oc(=O)cc(-c3ccccc3)c12	-1.0	.	.	i	0.58	0	103
CC1(C)c2ssc(=S)c2-c2ccccc2N1C(=O)CSC1=NCCS1	-1.6	58	124	i	1	-6	102
COc1ccc(C(CC(=O)NC(C)(C)C)n2cccc2)cc1 (centres undefined)	-4.4	-100	81	i	0.97	-7	103
Cc1ccc(C)c(NC(=O)Cc2coc3cc4c(cc23)CCC4)c1	-1.2	-26	83	i	1	5	100
CC1=NCCN1CCNC(=O)Nc1cc(C)cc(C)c1	.	.	.	i	0.94	.	47
CC1CCN(c2nc(NCc3ccco3)nc(N)c2[N+](=O)[O-])CC1	-0.3	-8	122	i	0.85	6	102
CC(C)(C)c1ccc(C(=O)N2CCNCC2)cc1	-1.3	12	149	i	0.83	0	96
CC1(C(=O)NCc2ccc(Cl)c(Cl)c2)Oc2ccccc2NC1=O (centres undefined)	.	-22	61	i	1	2	124
Clc1ccccc1CSc1cc2c(nn1)-c1ccccc1CC2	-1.4	12	112	.	.	4	112
CCOC(=O)c1nn(-c2ccc(F)cc2)c2c1CC/C2=C/c1ccccc1	-0.4	.	.	i	1.1	4	103
CN(C)C(CNC(=O)c1ccc(S(=O)(=O)N(C)C)cc1)Cc1ccccc1 (centres undefined)	.	.	.	i	0.98	6	99
CCN(C(=O)COC(=O)c1n[nH]c2ccccc12)C1CCS(=O)(=O)C1 (centres undefined)	-2.0	.	.	i	1.1	-1	94
CCC(=O)N(Cc1ccco1)c1nc(C(=O)Nc2ccc(Cl)cc2)c(C)s1	0.2	-21	92	i	1.1	-2	112
CC(C)N1CCN(Cc2cccc(-c3ccco3)c2)CC1CCO (centres undefined)	.	.	.	?	.	1	102
O=C(Nc1ccc(N=Nc2ccccc2)cc1)c1ccc(Cl)cc1Cl	-3.5	-196	110	i	1.1	-3	91
C=CCN1C(=O)C(Cc2ccc(OCC)cc2)SC1=Nc1ccc(C(=O)O)cc1 (centres undefined)	-1.6	13	130	i	1	-7	106
COC(=O)COc1cccc(/C=N/NC(=O)CCSc2ccccc2)c1	.	-11	150	i	0.93	1	109
COc1ccccc1-c1c(NC(=O)c2ccco2)n(-c2ccccc2)nc(C)c1=O	-0.2	0	141	i	1.1	18	99
O=C(CSc1nnc(Cn2c(=O)sc3ccccc32)n1-c1ccccc1)Nc1nccs1	-0.1	-40	82	i	0.92	-15	103
O=C(O)CSc1nnc(-c2ccncc2)n1-c1ccc(Cl)cc1	-0.8	30	87	i	0.78	-2	101
CC(=O)Nc1nc(COc2ccc3ccccc3c2)cs1	-0.5	23	118	i	0.82	-3	103
O=C(Cc1nc2ccccc2[nH]1)c1ccc(Br)cc1	.	.	.	i	1	-7	100
Cc1cc(C)n(-c2ncc3c(n2)N(CCO)CCOC3=O)n1	.	.	.	i	1	.	95
COc1cc(/C=C2/NC(=O)N(CC(=O)Nc3cccc(C)c3)C2=O)ccc1OCC(N)=O	.	29	128	i	0.92	-5	103
Cn1c(=O)c2nc(NCc3ccccc3)cnc2n(C)c1=O	-1.1	.	.	.	.	-10	103
COc1ccccc1C1CC(=O)Nc2c1c(=O)n(C)c(=O)n2C (centres undefined)	-4.1	.	.	i	0.94	-1	100
O=[N+]([O-])c1ccc(O)c(/C=N/Nc2ccccc2Cl)c1	.	.	.	i	1	-6	95
COc1ccccc1N1C(=S)NC2CS(=O)(=O)CC21 (centres undefined)	.	.	.	i	1.2	.	103
CC1CCCC(N2CCN(C(=O)c3ccc(F)cc3)CC2)C1 (centres undefined)	0.5	.	.	i	0.86	-15	.
O=C(O)C1C2CCC(O2)C1C(=O)NCc1ccccc1Br (centres undefined)	.	-7	121	i	0.9	-3	105
O=C(OCC(=O)N1CCOCC1)c1ccc2c(c1)OCCO2	0.8	.	.	i	1	-1	-154

Limited to RGS16-Gao HTS, GALR2 agonist and Insulin prom inh cell count, for some of the entries so far:
SMILES | RGS16-Gao HTS | GALR2 agonist | Insulin prom inh cell count
COC(=O)COc1cccc(/C=N/NC(=O)CCSc2ccccc2)c1 | 109 | . | 150
COc1ccccc1-c1c(NC(=O)c2ccco2)n(-c2ccccc2)nc(C)c1=O | 99 | -0.2 | 141
O=C(CSc1nnc(Cn2c(=O)sc3ccccc32)n1-c1ccccc1)Nc1nccs1 | 103 | -0.1 | 82
O=C(O)CSc1nnc(-c2ccncc2)n1-c1ccc(Cl)cc1 | 101 | -0.8 | 87
CC(=O)Nc1nc(COc2ccc3ccccc3c2)cs1 | 103 | -0.5 | 118
O=C(Cc1nc2ccccc2[nH]1)c1ccc(Br)cc1 | 100 | . | .

New compounds follow:
SMILES	GALR2 agonist	Insulin prom inh	Insulin prom inh cell count	HSV replic up	HSV replic up primary fold	PKD1 kinase inh	RGS16-Gao HTS
COC(=O)c1cccc(C23CC4(C2)[C@H](CN(Cc2cccnc2)[C@@H]4c2ccccc2)C3c2ccccc2)c1 (some centres undefined)	.	.	.	i	0.89	.	100
CCOc1ccc(-n2c(SCC(=O)Nc3ccc(OC)cc3)nc3c(c2=O)SCC3)cc1	-1.9	27	107	i	1.1	-11	101
CC(=O)C1=C(c2ccccc2)OC(N)=C(C#N)C1c1ccccc1F (centres undefined)	-1.3	.	.	i	1.1	-2	93
O=C(Cn1ncc2c(=O)oc3ccccc3c21)NCCN1CCN(c2ccccc2F)CC1	-2.2	.	.	i	0.94	0	103
CCC(C)NC(=O)CN1C(=O)C(CC)Sc2ccccc21 (centres undefined)	.	47	83	i	0.91	-3	97
C=CCNC(=O)CN(c1ccc(F)c(Cl)c1)S(C)(=O)=O	-0.7	44	126	i	0.89	-11	106
COC(=O)C1C(=O)c2c([nH]c(C(=O)OC3CCCCCC3)c2C)CC1C (centres undefined)	-0.7	.	.	i	1.1	-2	102
O=C(c1ccc(S(=O)(=O)N2CCCCC2)cc1)N1CCN(c2ccccc2F)CC1	-0.2	.	.	i	0.9	3	104
O=C(CN1CCOCC1)N/N=C/c1ccc(-c2ccc(Br)cc2)o1	.	.	.	i	1	.	100
CNC(=O)COC(=O)/C=C/c1cccc(F)c1	.	36	149	i	0.75	-3	93
COC(=O)CNc1nc(Cl)nc(Nc2ccc(Cl)cc2)n1	.	28	131	i	0.97	-8	106
CC(C)c1nnc(NC(=O)CCC(=O)Nc2ccc3cn[nH]c3c2)s1	.	.	.	i	1.2	.	97
Cc1cc(C(F)(F)F)nn1Cc1n[nH]c(=S)n1-c1cccc(Cl)c1	0.0	11	66	i	1.1	0	106
CCOC(=O)c1c(CSC(=N)N)n(-c2ccc(C)cc2)c2cc(Br)c(OC(C)=O)cc12	1.5	68	133	i	0.49	-10	98
CC(C)(CO)Nc1nc(N2CCCC2)nc(N2CCCC2)n1	-2.3	-305	76	i	0.94	-5	92
CCOC(=O)CC(=O)c1cc(OC)c(OC)c(OC)c1	1.0	-66	155	i	0.82	2	101
CCC1(CC)Cc2ccccc2C(C2=C(O)CC(C)(C)CC2=O)=N1	-0.4	-25	95	i	0.86	0	110
CC(C)CCN(C(=S)Nc1cccc(F)c1)C1CCN(C(C)C)CC1	.	.	.	i	0.89	-1	102
CC1(C)CC2CC(C)(CN2C(=O)Cc2ccccc2)C1 (centres undefined)	-2.0	-95	95	i	0.96	-2	112
Fc1ccccc1Nc1nc(-c2ccncc2)nc2ccccc12	0.5	.	.	i	0.82	2	107
O=C(NNC(=S)NC(=O)c1ccccc1[N+](=O)[O-])c1ccc(Cl)cc1Cl	.	17	126	i	1	-9	101
O=C(NNc1c(Cl)cc(Cl)cc1Cl)c1cccc([N+](=O)[O-])c1	0.0	28	64	i	0.95	-7	100
Cc1ccc(N=CC2=C(O)CC(C)(C)CC2=O)nc1	0.1	-10	133	i	1	5	112
CCN(CC)CCCNC(=O)CSc1nc2c(c(C(F)(F)F)n1)CCc1ccccc1-2	.	.	.	i	0.9	2	101
COC(=O)c1ccc(CSc2ccc3nnc(-c4ccc(OC)cc4)n3n2)o1	.	38	93	i	0.94	4	98
Brc1ccc2nc(N3CCCC3)sc2c1	.	.	.	i	0.92	-3	103
CSc1nnnn1-c1c(C)cccc1C	.	.	.	i	1	.	100
COCCn1nnnc1C(c1cc2ccc(OC)cc2[nH]c1=O)N1CCN(C2CCCCC2)CC1 (centres undefined)	-1.7	-10	61	i	0.98	13	94
C=CCC(=O)OCCCCCCOc1ccc(C(=O)O)cc1	-1.0	.	.	i	0.94	-17	101
O=C(Nc1cccnc1)c1sc(Nc2ccccc2F)nc1-c1ccccc1	.	.	.	i	0.63	2	91
CCN(CC)S(=O)(=O)c1cccc(C(=O)N[C@H](C(=O)OCC(N)=O)C(C)C)c1	-2.6	52	28	i	0.95	8	106
COc1ccc(NC(=O)CSc2nc(O)cc(=O)n2C)cc1	-2.7	39	85	i	1	-6	105
COc1ccc([N+](=O)[O-])cc1NCc1ccco1	.	.	.	i	1	.	101
Cn1cccc1CC(=O)N/N=C/c1cccc([N+](=O)[O-])c1	.	0	107	i	1	-2	100
Cc1ccc(S(=O)(=O)N(CC(=O)N=Nc2c(O)[nH]c3ccccc23)c2ccc(C)c(C)c2)cc1	-1.3	45	79	i	0.81	-3	108
COc1ccc(N2CCN(C(=O)c3cccn4c(=O)c5ccccc5nc34)CC2)cc1	.	36	99	i	1	3	105
CC(C)NC(=O)C1CCN(C2CCN(Cc3nc(C(C)C)cs3)CC2)CC1	.	.	.	i	1.1	4	123
OC(CN1CCN(Cc2ccc3c(c2)OCO3)CC1)c1c[nH]c2ccccc12 (centres undefined)	-1.9	47	91	.	.	6	115
COc1ccccc1N1CCN(C(c2cc3cc(C)ccc3[nH]c2=O)c2nnnn2C2CCCC2)CC1 (centres undefined)	-1.4	.	.	i	0.94	8	104
O=C(NCc1ccco1)c1ccccc1F	-1.9	-32	120	i	0.91	2	99
CNS(=O)(=O)c1ccc(NC(=O)c2nc3nc(C)cc(C(F)F)n3n2)cc1	-0.3	11	122	i	0.68	-5	104
CN=C1c2ccccc2CN1c1cccc(C(=O)OC)c1	-2.5	-4	87	i	1	9	104
CCC(CC)C(=O)NCCc1ccc(OC)cc1	1.1	-3	144	i	1.1	3	.

Arranged by molar mass (ascending): some entries from above
SMILES	GALR2 agonist	Insulin prom inh	Insulin prom inh cell count	HSV replic up	HSV replic up primary fold	PKD1 kinase inh	RGS16-Gao HTS
CCC(CC)C(=O)NCCc1ccc(OC)cc1	1.1	-3	144	i	1.1	3	.
COc1ccc(NC(=O)CSc2nc(O)cc(=O)n2C)cc1	-2.7	39	85	i	1	-6	105
CNS(=O)(=O)c1ccc(NC(=O)c2nc3nc(C)cc(C(F)F)n3n2)cc1	-0.3	11	122	i	0.68	-5	104
